Ba CapD inh = inhibitors of Bacillus anthracis CapD enzyme; purified CapD enzyme, fluorescence intensity read-out; hits give low values; some hits fall short of the stated cut; z-score (concentration not given with the values); 140,000 tested, 0.23% active; AID 492967;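 active = z-score under -4 in either of two replicates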;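 note: stock transfer was 100 nL into about 40 µL; score is relative to mean and spread of the plate; one replicate is shown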
AID504770 = growth inhibitors of E. coli YBA685 in a screen for V. cholerae RctB (chromosome II replication) inhibitors | z-score (no concentration beside the values) | 130,000 tested, 0.27% active | E. coli YBA685 rctB-dependent plasmid, OD600 growth, 3 h; hits give low values;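 active = z-score under -2 on both plates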;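 note: wells of about 30 µL received 100 nL stock; score is relative to mean and SD of the test wells; the first replicate is given; strong numbers were not always called active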
* = called active by the depositor; . = no result given.

SMILES	Ba CapD inh	AID504770
COC(=O)C1=C(CN2CCCCC2)NC(=O)NC1c1ccccc1C (stereo not given)	.	-0.15
O=C(CCN1CCOCC1)c1ccc(O)cc1	-0.98	1.7
Cn1c(=O)c2c(nc(NCc3ccccc3)n2Cc2ccccc2Br)n(C)c1=O	0.51	.
Cc1cc(=O)oc2cc(OCC(O)CNC3CC3)ccc12 (stereo not given)	.	0.4
COC(=O)c1c(NC(C)=O)c2c(C)c(C)sc2n1Cc1cccc(C)c1	-0.21	0.05
CC(C)CC(N)P(=O)(OC(C)C)OC(C)C (stereo not given)	0.03	.
Nc1ccccc1NC1=CC(=O)CC(c2c(F)cccc2Cl)C1 (stereo not given)	-0.05	-1.4
CCOC(=O)c1c(NC(=O)c2cc(OC)c(OC)c(OC)c2)sc(C(=O)Nc2ccc(OC)cc2OC)c1C	0.11	.
O=C(O)c1nc(Cl)c(Cl)c(Cl)c1Cl	0.8	0.7
COc1ccc2c(c1)CCC/C2=N/NC(=O)c1ccoc1C	.	-0.1
CC(C)CCNC(=O)c1cc(-c2ccco2)nc2ccccc12	80	0.95
CS(=O)(=O)Nc1ccc(C(=O)NCc2ccccc2)cc1	-0.35	-0.15
Cc1cc(C)nc(Nc2cccc(Cl)c2Cl)n1	-0.41	.
CC(C(=O)NC1=NCCS1)(C(F)(F)F)C(F)(F)F	-0.41	-0.75
CC1=C(C(N)=O)C(c2ccccc2)NC(=S)N1 (stereo not given)	-0.51	-0.5
C/C(=C\C(=Nc1ccc2c(c1)OCO2)c1ccccn1)c1ccccn1	-0.85	-0.3
COC(=O)[C@@H](NC(=O)c1ccc(Cl)cc1Cl)C(C)C	.	-0.85
CCOC(=O)C1=C(c2ccccc2)OC(N)=C(C#N)C1c1ccc(CC)cc1 (stereo not given)	4.3	.
COc1cccc(OCCNC(=O)c2cccc3ccccc23)c1	-0.33	-1.2
N#Cc1nc(-c2ccccc2)oc1N1CCCCC1	42	0.05
CC1(C)C(C(=O)N2CCN(c3ccc(Cl)cc3)CC2)C1(C)C	0.22	-0.05
Cc1c(C(=O)Nc2ccccn2)oc2ccccc12	-0.57	0.2
CCc1ccc(/C=N/n2c(C)nnc2-n2nc(C)cc2C)cc1	0.29	1.6
N#Cc1c(C(F)(F)F)nc2sc3ccccc3n2c1=N	-0.42	-0.1
O=C(Nc1ccc(Cl)cc1)OCc1nccn1Cc1ccc(Cl)cc1	0.12	-0.45
CC(=O)Nc1ccccc1-c1nc2ccc(C(=O)NC3CCCCC3C)cc2[nH]c1=O (stereo not given)	-0.62	0.05
COc1cc2c(cc1OC)CN(C(=O)c1sc(-c3cnccn3)nc1C)CC2	0.35	0.45
Nc1c(C(=O)Nc2ccc(S(N)(=O)=O)cc2)sc2nc3c(cc12)CCCCCC3	8.6	-0.4
O=C1Nc2c(S(=O)(=O)O)cc(S(=O)(=O)O)c3cccc1c23	24	.
O=C(Nc1ccccc1)Nc1ccc(Br)cc1	-1.1	-0.75
CCCCc1ccc(S(=O)(=O)N2CCC(c3ccccc3OC)CC2)cc1	0.075	.
CC(Sc1cccc[n+]1[O-])C(=O)N1CCN(C(=O)c2ccco2)CC1 (stereo not given)	.	0.95
O=C(CSCc1ccccc1Cl)N/N=C/c1ccco1	.	0.2
O=C(O)CCC(=O)N1CCNC(=O)C1	0.51	-0.2
O=C(Cc1coc2cc3c(cc12)CCC3)OCCN1CCCC1=O	.	0.05
O=C(CC1CCCCC1)NCc1ccco1	.	-0.55
N#Cc1ccc2c(c1)N(CCCN1CCC(O)CC1)c1ccccc1S2	-0.56	0.1
Cc1ccc(S(=O)(=O)NC(=O)N2CCCc3cc(SC#N)ccc32)cc1	.	-0.75
O=C(CSc1oc(-c2ccc(Cl)cc2)nc1S(=O)(=O)c1ccccc1)N1CCCC1	.	-0.65
Cc1cccc(NC(=O)C(Cc2ccccc2)NS(=O)(=O)c2cccc3cccnc23)c1 (stereo not given)	-0.005	0

3 compounds from above, ordered by length of the SMILES, low to high.
SMILES	Ba CapD inh	AID504770
O=C(CC1CCCCC1)NCc1ccco1	.	-0.55
O=C(CSCc1ccccc1Cl)N/N=C/c1ccco1	.	0.2
CC(Sc1cccc[n+]1[O-])C(=O)N1CCN(C(=O)c2ccco2)CC1 (stereo not given)	.	0.95

Other entries
SMILES	Ba CapD inh	AID504770
CC1CCN(C(=O)COC(=O)c2sc3ccccc3c2Cl)CC1	0.3	0.75
Cn1ncc2c(NNC(=S)Nc3ccc(F)cc3F)ncnc21	0.66	0.65
CSCCC(CC(=O)O)NC(=O)c1cccs1 (stereo not given)	0.54	.
COc1cc(OC)nc(C(c2ccccc2)N2CCN(C(=O)Nc3ccccc3OC)CC2)n1 (stereo not given)	0.04	.
O=C(c1ccc(F)cc1F)N1CCN(Cc2ccc3c(c2)OCO3)CC1	0.43	0.15
O=C(c1ccco1)N(C(=O)c1ccco1)c1nc2ccccc2nc1N1CCOCC1	.	-0.3
O=C(Nc1ccc(S(=O)(=O)N2CCCC2)cc1)C1CC1	-0.05	-0.05
CC1CCCCN1C(=O)NC12CC3CC(CC(C3)C1)C2 (stereo not given)	0	-0.45
Cc1nn(C)c(C)c1P(=S)(c1c(C)nn(C)c1C)N(C)C	.	0.05
OCCn1c(Cc2ccccc2)nc2ccccc21	98	-0.05

The final three compounds of the section above lead into the next.
SMILES	Ba CapD inh	AID504770
CC1CCCCN1C(=O)NC12CC3CC(CC(C3)C1)C2 (stereo not given)	0	-0.45
Cc1nn(C)c(C)c1P(=S)(c1c(C)nn(C)c1C)N(C)C	.	0.05
OCCn1c(Cc2ccccc2)nc2ccccc21	98	-0.05
ON=C1CCN(c2ncc(C(F)(F)F)cc2Cl)CC1	-0.49	0.25
CC(C)=CCCC(C)CC(=O)NNC(=O)c1ccco1 (stereo not given)	0.035	.
Cc1nc(-c2ccc(NC(=O)c3cc4cc(Br)ccc4oc3=O)cc2)cs1	-0.2	.
O=C(CC1C(=O)NCCN1C(=O)Nc1ccccc1)Nc1ccc(F)cc1 (stereo not given)	-0.98	-1.1
CCN(CC)c1ccc2cc(C(=O)Nc3ccccc3)c(=N)oc2c1	-0.36	-1.1
CC1Sc2cc(S(=O)(=O)C(C)CC(=O)N3CCc4ccccc43)ccc2NC1=O (stereo not given)	0.11	-0.55
COC(=O)c1ccc(S(=O)(=O)N2CCCN(Cc3ccc(F)cc3)CC2)n1C	0.74	-0.25
CCCN(Cc1nnc(-c2ccco2)o1)C(=O)c1ccc2c(c1)CC(c1ccccc1)OC2=O (stereo not given)	.	-0.35
CSc1nnc(C)c(=O)n1COC(=O)c1ccccc1	.	1.9
CCc1c(O)c2ccccc2oc1=O	6.9	2
Cc1cc(CSc2nc(C)cc(C)n2)c2ncccc2c1	0.24	0
CC1=C(C(=O)OC2CCCCCC2)C(c2ccc(Cl)c(Cl)c2)NC(=O)N1C (stereo not given)	-0.53	.
CCCN1CCN(C(=O)c2ccccc2CSc2ncn[nH]2)CC1	.	-1.4
Cc1[nH]c(=O)[nH]c(=O)c1Oc1ccccc1	.	0.8
COc1cc(/C=C2\SC(=O)N(Cc3ccc(F)cc3)C2=O)cc(OC)c1OC	0.14	.
CCOc1ccc(N(C)S(=O)(=O)c2ccc3[nH]cc(C(=O)N(C)Cc4ccccc4)c(=O)c3c2)cc1	0.55	.
c1ccc(C2Nc3ccccc3C3OCCC23)cc1 (stereo not given)	-0.59	-0.7
CC(N)CCCc1ccccc1 (stereo not given)	.	-0.2
CN(C)S(=O)(=O)Oc1ccc(C(=O)Nc2cccc(Cl)c2Cl)cc1	-1.2	.
COC(=O)NC(=C(Cl)Cl)S(=O)(=O)c1ccccc1	0.05	-0.7

Three entries drawn at random from the list so far, as already listed:
SMILES	Ba CapD inh	AID504770
CC(N)CCCc1ccccc1 (stereo not given)	.	-0.2
CS(=O)(=O)Nc1ccc(C(=O)NCc2ccccc2)cc1	-0.35	-0.15
CC(=O)Nc1ccccc1-c1nc2ccc(C(=O)NC3CCCCC3C)cc2[nH]c1=O (stereo not given)	-0.62	0.05

Carrying on:
SMILES	Ba CapD inh	AID504770
N#C/C(=N\Nc1ccc(Br)cc1)C(=O)C1CC1	-0.97	.
COc1ccc(-n2c(N(C(C)=O)C(C)=O)c(C#N)c3nc4ccccc4nc32)cc1	.	0.75
COc1ccc(-n2c3c(cc(C(N)=O)c2=O)C(=O)CC(C)(C)C3)cc1	-0.49	-0.75
COC(=O)c1ccc2c(c1)CCO2	-0.04	-0.65
Cc1ccc2c(c1)NNc1nncn1-2	-0.65	-0.25
O=C(N/N=C/c1ccco1)c1ccc(CSc2nc3ccccc3s2)cc1	.	0.45
COc1cc(C)nc(NC(=O)NS(=O)(=O)c2c(C)cc(C)nc2Cl)n1	-1.6	.
COc1cc(NS(=O)(=O)c2ccc(NC(=O)CSc3nc4ccccc4o3)cc2)nc(OC)n1	-0.16	.
COc1ccc(OC)c(NC(=O)CNc2cc(OC)c(Cl)cc2OC)c1	.	-0.3
CC1=CCC2C(=O)N(c3ccc4c(c3)OCO4)C(=O)C2C1 (stereo not given)	0.065	.
Cc1ccc(CNC(=O)c2cnc3ccccn3c2=O)cc1	.	1.7
Cc1nn(-c2ccccc2)c(N)c1Sc1c(F)c(F)c(F)c(F)c1F	-0.12	-0.3
CC(C)C(Nc1ncnc2ccc(Br)cc12)C(=O)O (stereo not given)	-0.64	-0.5
Cc1nc(SCCNCCO)c2c3c(sc2n1)CCC3	.	0.15
Cc1ccc(NC(=O)Cn2cnc3sc(C(=O)N4CCC(Cc5ccccc5)CC4)c(C)c3c2=O)cc1Cl	-0.065	.
C#CCOn1ccc2ccc(S(C)(=O)=O)cc21	23	.
O=C(c1c[nH]c(C(=O)C(Cl)(Cl)Cl)c1)c1ccccc1Cl	-1.1	.
CCCC1C(=O)CC(C#N)(C#N)C(C#N)(C#N)C1c1ccccc1 (stereo not given)	1.1	0.85
O=C(Nc1ccc(NC(=O)C2CC23CCC3)cc1)C1CC12CCC2 (stereo not given)	.	-0.7
O=C(Nc1c2c(nn1-c1ccc([N+](=O)[O-])cc1)CS(=O)(=O)C2)c1ccccc1Br	-0.71	.
CC1(C)CC2CC(C)(CN2C(=O)c2ccccc2)C1 (stereo not given)	0.085	-0.6
O=C1c2ccccc2C(=O)c2c1oc1c3c(ccc21)OCN(CCCn1ccnc1)C3	.	-0.9
O=C(O)c1ccc2c(c1)CCC2	.	-0.3
COC(=O)CN1C(=O)C(OC(C)=O)S(=O)c2ccccc21 (stereo not given)	.	1.6
CCCN(CCC)C(=O)c1c(NC(=O)c2ccco2)sc2c1CCC(C)C2 (stereo not given)	0.02	1.4
Cc1c(CC(=O)N(C)C)sc2ccccc12	0.34	0.3
O=C(Nc1ccc(OC(F)(F)F)cc1)c1ccc(N2CC3CC(C2)c2cccc(=O)n2C3)c(NC(=O)c2ccncc2)c1 (stereo not given)	-0.4	.
CCn1c(C)nc2cc(-c3nnc(Nc4ccccc4)o3)ccc21	.	-0.75
CC(C)(C)OC(=O)NCC1CCN(Cc2ccccc2)CC1	-0.76	-0.95
Cc1nc2c3ccccc3n(Cc3ccccc3)c2s1	0.28	-0.4

The last 3 compounds of the part above come first, to join the parts:
SMILES	Ba CapD inh	AID504770
CCn1c(C)nc2cc(-c3nnc(Nc4ccccc4)o3)ccc21	.	-0.75
CC(C)(C)OC(=O)NCC1CCN(Cc2ccccc2)CC1	-0.76	-0.95
Cc1nc2c3ccccc3n(Cc3ccccc3)c2s1	0.28	-0.4
CC(C)c1nc(N2CCN(C(=S)NC3CCCCC3)CC2)c(C#N)c2c1CCCC2	-0.065	-0.8
Cc1nonc1NC1(Nc2nonc2C)C(=O)c2ccccc2C1=O	-0.36	1.1
Cn1cccc1C=C1C(=O)c2ccccc2C1=O	-1.7	1.4
CCCNCc1cccn1-c1nnc(N2CCCC2)s1	0.1	-1.2
CN(CC(=O)N1CCC(Cc2ccccc2)CC1)S(=O)(=O)c1cccs1	.	-0.7
O=C(CSc1nnc(Cn2c(=O)sc3ccccc32)n1-c1ccccc1)Nc1ccccc1F	-0.53	0.25
O=C(O)C1C2C=CC(O2)C1C(=O)NCCc1cccc(Cl)c1 (stereo not given)	0.12	-0.85
COc1ccc(OCCNC(=O)OCCc2cccc(C)c2)cc1	0.28	.
CCc1nnc(NC(=O)c2ccc3c(c2)[nH]c(=O)c(=O)n3CC)s1	.	-1.1
CN(N)P(=O)(c1ccccc1)c1ccccc1	0.36	1.2
O=CNCc1ccc(F)cc1	.	1.1
CCc1nnc(NC(=O)c2ccccc2)s1	-0.95	-1.1
COCCOC(=O)C1=C(C)NC(C)=C(C(=O)OCCOC)C1c1cn(-c2ccccc2)nc1-c1ccccc1	3.8	.
Clc1ccccc1N1CCN(C2=Cc3ccccc3CC2)CC1	1.8	-0.2
CC(C)NC(=O)CSCc1c(Cl)cccc1Cl	.	0.35
C=CCNC(=O)COc1nc(-c2cccs2)cc(C(F)(F)F)n1	0.15	0.45
O=C(CC1CCCCC1)Nc1ccc(F)cc1	-0.15	-0.2
O=C(CN1C(=O)c2ccccc2S1(=O)=O)N1CCc2ccccc21	0.58	-0.25
COc1cc2c3nc4n(c(=O)c3n(CC(=O)NCc3ccco3)c2cc1OC)CCS4	.	-0.3
O=[N+]([O-])c1ccc(N2N=C(c3ccc(O)cc3)CC2c2ccc(F)cc2)cc1 (stereo not given)	-2.6	.
CN(CCOc1ccccc1)CC(=O)Nc1ccc(Br)cc1F	.	-0.1
COc1ccc(F)cc1S(=O)(=O)Nc1ccc2c(c1)oc1ccc(S(=O)(=O)N3CCCC3)cc12	0.29	-1.2
O=C(O)COCC(=O)Nc1ccc(OC(F)F)cc1	-0.65	-0.95
CC(=O)OC1CC(C(=O)O)N(S(=O)(=O)c2ccc(F)cc2)C1 (stereo not given)	.	1.4
Nn1c(Cc2ccccc2F)nnc1SCc1cc(=O)oc2cc(O)c(O)cc12	.	0.85
